CSC inhib: blocks cancer stem cells; actives 1.1% (n = 300,000); inhibition, % at 7.5 µM; cancer stem cell-like cells viability, luminescence; AID 2717;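 active = mean at 75% or more and at least half the replicates too; tested in HMLE shEcad cells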;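 note: 0% = median of negative and 100% = median of positive control wells; the first replicate is given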
HIV Env fusion: blocks HIV Env-driven cell-cell fusion; HeLa-JRFL Env/CEM21 cell fusion, luciferase; actives 1.1% (n = 360,000); inhibition, % at 12.3 µM;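 active = mean replicate inhibition score of at least 50 and every replicate individually at or above 50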;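 note: 0% = plate neutral controls and 100% = maraviroc near 300 nM; one replicate is shown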
UUG fidelity: alters start codon recognition fidelity in yeast | S. cerevisiae UUG-firefly luciferase reporter, luminescence/redox ratio | activity score, % at 18.7 µM | actives 0.13% (n = 350,000) | AID 602363;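 active = replicate mean at a twofold rise or more, about +100% in these data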;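 note: firefly luciferase made from a UUG start codon reports start codon fidelity; reporter light over untreated wells divided by growth signal over untreated wells; some hits fall short of that in this replicate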
PABP polyA inh: blocks human PABP binding to poly(A) RNA. AID 2014. inhibition, % at 35 µM. actives 1% (n = 290,000). fluorescence polarization. P11940;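 active = 50% or more with normal probe brightness, or confirmed in later tests; about a fifth of its hits are not listed in these tables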;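 note: calls also rest on retests at 20 µM and on dose response follow-up; controls were probe without protein and protein plus probe with vehicle; some compounds called inactive have numbers as strong as hits; many hits fall short of the cut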
Rce1 inh: inhibitors of yeast Ras-converting enzyme | yeast membranes, quenched prenylated peptide cleavage fluorescence | calls only | actives 0.27% (n = 290,000) | AID 2563;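 active = fall in fluorescence gain of 50% or more versus controls, with final raw signal at or below 3038400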;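 note: plate controls were neutral control wells for no effect and wells lacking membranes for full effect; tested at 10 µM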
Target sequence (Q03530 whole entry, looked up): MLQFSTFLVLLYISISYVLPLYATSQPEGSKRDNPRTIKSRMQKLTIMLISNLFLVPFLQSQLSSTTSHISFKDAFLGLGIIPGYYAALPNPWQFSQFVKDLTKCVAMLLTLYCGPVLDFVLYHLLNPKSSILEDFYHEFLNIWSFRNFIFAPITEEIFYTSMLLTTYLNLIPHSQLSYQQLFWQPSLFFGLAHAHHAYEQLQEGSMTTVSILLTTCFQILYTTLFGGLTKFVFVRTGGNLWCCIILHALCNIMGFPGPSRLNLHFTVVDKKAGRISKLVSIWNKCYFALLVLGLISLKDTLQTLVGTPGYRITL
eIF4H FP inh: inhibitors of RNA binding by human eIF4H. inhibition, % at 35 µM. Q15056. eIF4H fluorescence polarization binding assay. actives 0.94% (n = 290,000);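 active = 50% or more with normal probe brightness, or confirmed in later tests; about a fifth of its hits are not listed in these tables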;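 note: calls also rest on retests at 20 µM and on dose response follow-up; 0% = protein and probe with vehicle and 100% = probe without protein; strong numbers were not always called active; many hits fall short of the cut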
MT1-MMP act inh: inhibitors of human MT1-MMP activation | AID 651647 | actives 0.061% (n = 360,000) | P50281 | GFP/RFP ratio change, % at 20 µM | HT1080 RFP-PRO-GFP cells, GFP/RFP ratio fluorescence, overnight; percent of plate control window, DMSO zero;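 active = GFP/RFP ratio change of at least 30% with cell ATP level not reduced by more than half and red fluorescence within 50% of control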; note: strong numbers were not always called active
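Assay system: RFP-PRO-GFP reporter HT1080 cells; read-out basis: GFP/RFP fluorescence ratio; benchmarks: DMSO wells and RFP-L50D-GFP cells; doses: 20 µM single dose, 1% DMSO; schedule: overnight cell settling, then overnight compound exposure, 37 °C, 5% CO2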
MT1-MMP act inh RFP: recorded beside MT1-MMP act inh, whose call it bears; RFP signal change, %; measured here: RFP expression control read;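 0 = vehicle wells; hits needed this value within 50% of zero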
Starred values were filed as active, the others as inactive; i = inactive; nt = not tested or not shown; & = joins results of further samples; [ ] = another dose, or the depositor's remark. This is a subset, so the mix of outcomes need not match the whole.

SMILES	CSC inhib	HIV Env fusion	UUG fidelity	PABP polyA inh	Rce1 inh	eIF4H FP inh	MT1-MMP act inh	MT1-MMP act inh RFP
C[C@@H]1C=C(C(=O)NCc2ccccc2)O[C@H](OCc2ccc(CO)cc2)C1	-5	4[16.7 µM]	1&-1	-1	i	-8	1	1
COc1ccccc1OCCOCCOc1ccc(C)cc1[N+](=O)[O-]	nt	13	-6	11	i	-3	2	1
OCCNCCOc1ccccc1-c1ccccc1	3	-37	-14	8	i	14	3	5
CCN(CC(=O)Nc1ccc(S(=O)(=O)N2CCCC2)cc1)CC(=O)Nc1ccccc1C(F)(F)F	15	21	3	nt	nt	nt	-2	1
O=C(CCCOc1ccc(Cl)cc1Cl)n1nnc2ccccc21	-2	nt	-14	-10	i	-12	3	2
Cc1ccc(C(=O)O/N=C(\N)c2ccc(Br)cc2)cc1	-4	nt	nt	-3	i	-3	0	-1
C=CCn1c(NC(=O)c2ccc(C)cc2)nc2ccccc21	7	-28	-10	-4	i	4	3	5
CN(C)CC(=O)Nc1ccc2cn[nH]c2c1	-11	-8	nt	-11	i	-3	-9	-3
CC(=O)OCc1cc(-c2nn(C)c(=O)c3ccccc23)ccc1C	nt	-3	nt	-5	i	1	2	3
Oc1c(C(c2ccccc2)N2CCCCC2)ccc2ccccc12 (stereo not drawn)	nt	-28	-22	nt	nt	nt	-18	4
COc1ccc(S(=O)(=O)Nc2ccc(C)cc2)cc1N(C)S(=O)(=O)c1ccc(Cl)cc1	1	nt	nt	2	i	2	1	-10
O=C(Cc1cccc(NC(=O)C2CCCN(C(=O)c3ccccc3)C2)c1)Nc1cccc(C(=O)N2CCCCC2)c1 (stereo not drawn)	nt	-10	-17	nt	nt	nt	3	3
CCn1c(C)c(C)c2cc(C(=O)NC3CCCCCC3)ccc21	8	-9	-38	-14	i	-1	1	-4
C(=C\c1ccccc1)/CN1CCN(C(c2cc3ccccc3o2)c2nnnn2Cc2ccccc2)CC1 (stereo not drawn)	nt	8	-8	nt	nt	nt	2	-7
CCOc1ccc(CNC(=O)CCS(=O)(=O)c2ccc3c(c2)NC(=O)CO3)cc1OC	1	2	-18	-10	i	1	3	5
O=C(CNC(=O)c1ccc(Cl)cc1)N/N=C/c1cccnc1	-16	6	-12	-1	i	-4	-2	-1
COC(=O)c1cc(S(=O)(=O)NCC2CCN(CCc3ccc(OC)cc3)CC2)cn1C	14	1	-4	-5	i	-15	-1	0
NC(=O)COc1ccccc1/C=C1/SC(=O)N(CC(=O)N2CCc3ccccc3C2)C1=O	-13	nt	10	-1	i	4	3	0
Clc1ccc(SCCOCCN2CCCCCC2)cc1	58	-7	-2	9	i	6	2	3
Cc1ccc[n+](CC(=O)c2ccc(NC(=O)c3ccccc3)cc2)c1	8	-2	nt	4	nt	-4	1	1

Given as labelled records: entries from further up
Compound: CCN(CC(=O)Nc1ccc(S(=O)(=O)N2CCCC2)cc1)CC(=O)Nc1ccccc1C(F)(F)F
- CSC inhib = 15
- HIV Env fusion = 21
- UUG fidelity = 3
- PABP polyA inh = nt
- Rce1 inh = nt
- eIF4H FP inh = nt
- MT1-MMP act inh = -2
- MT1-MMP act inh RFP = 1

Compound: O=C(CCCOc1ccc(Cl)cc1Cl)n1nnc2ccccc21
- CSC inhib = -2
- HIV Env fusion = nt
- UUG fidelity = -14
- PABP polyA inh = -10
- Rce1 inh = i
- eIF4H FP inh = -12
- MT1-MMP act inh = 3
- MT1-MMP act inh RFP = 2

Compound: Cc1ccc(C(=O)O/N=C(\N)c2ccc(Br)cc2)cc1
- CSC inhib = -4
- HIV Env fusion = nt
- UUG fidelity = nt
- PABP polyA inh = -3
- Rce1 inh = i
- eIF4H FP inh = -3
- MT1-MMP act inh = 0
- MT1-MMP act inh RFP = -1

Not a retest: an excerpt of the list.
SMILES	CSC inhib	HIV Env fusion	UUG fidelity	PABP polyA inh	Rce1 inh	eIF4H FP inh	MT1-MMP act inh	MT1-MMP act inh RFP
C=CCn1c(NC(=O)c2ccc(C)cc2)nc2ccccc21	7	-28	-10	-4	i	4	3	5
CN(C)CC(=O)Nc1ccc2cn[nH]c2c1	-11	-8	nt	-11	i	-3	-9	-3
CC(=O)OCc1cc(-c2nn(C)c(=O)c3ccccc23)ccc1C	nt	-3	nt	-5	i	1	2	3
Oc1c(C(c2ccccc2)N2CCCCC2)ccc2ccccc12 (stereo not drawn)	nt	-28	-22	nt	nt	nt	-18	4
COc1ccc(S(=O)(=O)Nc2ccc(C)cc2)cc1N(C)S(=O)(=O)c1ccc(Cl)cc1	1	nt	nt	2	i	2	1	-10
O=C(Cc1cccc(NC(=O)C2CCCN(C(=O)c3ccccc3)C2)c1)Nc1cccc(C(=O)N2CCCCC2)c1 (stereo not drawn)	nt	-10	-17	nt	nt	nt	3	3
CCn1c(C)c(C)c2cc(C(=O)NC3CCCCCC3)ccc21	8	-9	-38	-14	i	-1	1	-4
C(=C\c1ccccc1)/CN1CCN(C(c2cc3ccccc3o2)c2nnnn2Cc2ccccc2)CC1 (stereo not drawn)	nt	8	-8	nt	nt	nt	2	-7
CCOc1ccc(CNC(=O)CCS(=O)(=O)c2ccc3c(c2)NC(=O)CO3)cc1OC	1	2	-18	-10	i	1	3	5
O=C(CNC(=O)c1ccc(Cl)cc1)N/N=C/c1cccnc1	-16	6	-12	-1	i	-4	-2	-1
COC(=O)c1cc(S(=O)(=O)NCC2CCN(CCc3ccc(OC)cc3)CC2)cn1C	14	1	-4	-5	i	-15	-1	0
NC(=O)COc1ccccc1/C=C1/SC(=O)N(CC(=O)N2CCc3ccccc3C2)C1=O	-13	nt	10	-1	i	4	3	0
Clc1ccc(SCCOCCN2CCCCCC2)cc1	58	-7	-2	9	i	6	2	3
Cc1ccc[n+](CC(=O)c2ccc(NC(=O)c3ccccc3)cc2)c1	8	-2	nt	4	nt	-4	1	1

Later entries
SMILES	CSC inhib	HIV Env fusion	UUG fidelity	PABP polyA inh	Rce1 inh	eIF4H FP inh	MT1-MMP act inh	MT1-MMP act inh RFP
O=C(Cn1c(=O)oc2cc(S(=O)(=O)N3CCCC3)ccc21)N1CCN(c2ccccn2)CC1	4	-32	-14	-15	i	6	-6	1
O=C(O)c1ccc(NS(=O)(=O)c2ccc(N3C(=O)CCC3=O)cc2)cc1	-8	-4	-16	-5	i	-10	1	2
CSc1c(CC(=O)Nc2ccc(F)cc2)n(Cc2ccccc2)c2ccccc12	1	1	nt	-2	i	11	-8	-6
Cc1ccccc1OCc1nc(-c2ccc(Br)o2)no1	11	-68	-14	5	i	3	4	4
Cc1nn(-c2ccccn2)c2c1C(c1ccsc1)C1=C(CCCC1=O)N2 (stereo not drawn)	nt	nt	nt	-2	i	-3	1	-3
CC(=O)c1cccc(NC(=O)CN2C(=O)c3ccccc3C2=O)c1	-12	0	-23	1	i	0	0	1
CCCn1c(=O)c2[nH]c(C3CCCC3)nc2n(CCC)c1=O	-7	1	-21	10	i	-4	-3	-6
CCCCN(C(=O)CCOc1ccc(OCC)cc1)c1c(N)n(Cc2ccccc2)c(=O)[nH]c1=O	nt	-31	15	nt	nt	nt	2	2
Cc1ccccc1NC(=S)NC(=O)Cc1ccc(Cl)cc1	-3	5	-20	8	i	1	0	0
Oc1cccc(NC(=S)N=Nc2c(O)[nH]c3ccc(Br)cc23)c1	30	14	-14	7	i	15	5	-4
CC(=O)c1ccc(NC(=O)Cn2cnc(S(=O)(=O)N3CCCC3)c2)cc1	nt	nt	-15	0	i	8	1	4
Cc1ccccc1CSc1[nH]c(=O)ncc1C	-10	0	-15	nt	i	nt	-1	2

Screens as filed in PubChem BioAssay.
